High-throughput results as filed in PubChem.
H5N1 antiviral – MDCK cell protection from H5N1 avian flu; cytopathic effect, luminescence, 72 h; hits give high values; no value below 0 was filed and about half of the inactive calls have no number; reference of the scale not given here; inhibition, % at 50 µM; hit rate 0.07% among 96,000; AID 740; in the data active = inhibition above about 25%
Starred values were filed as active, the others as inactive; i = inactive.

SMILES | H5N1 antiviral
CCCCn1c(NC(=O)c2ccccc2Cl)c(C#N)c2nc3ccccc3nc21 | i
CC(C)=CC/C=C1\CCC(C(=O)O)C(C(=O)O)C1 (stereo unspecified) | 0.1
CCOCCSC1=C(C#N)C(c2cccs2)C(C(C)=O)=C(C)N1 (stereo unspecified) | i
CC1(C)CC(n2[nH]c(=O)c3c2NC(=O)CSC3c2ccccc2)CCO1 (stereo unspecified) | 1.5
COC(=O)c1[nH]nc2c1C(=O)N(Cc1ccccc1)C2=O | i
Cc1ccc(N2C(=O)CSC2c2cccs2)cc1 (stereo unspecified) | 0.4
Fc1ccc(-c2nc3n(n2)Cc2ccccc2-3)cc1 | i
CN(C)c1nc(N)nc(CSc2nnnn2-c2ccc(C(=O)O)cc2)n1 | 0.2
CCC(NC(=O)Nc1ncccc1C)(C(F)(F)F)C(F)(F)F | i
Cc1nc2ccccc2nc1OCC(=O)N1CCN(c2ccccc2)CC1 | 0.6
CN(c1ccccc1)S(=O)(=O)c1ccc(C(=O)NCC2CCCO2)cc1 (stereo unspecified) | 0.1
CC(C)C(=O)Nc1nc2c(ncn2C2CC(O)C(CO)O2)c(=O)[nH]1 (stereo unspecified) | i
CCc1nc2ccccc2n(CCOCCOCCn2c(=O)c(CC)nc3ccccc32)c1=O | 0.1
O=C(CCCNS(=O)(=O)c1cccs1)N1CCN(c2ccc(F)cc2)CC1 | 0.8
COc1cc(Cl)c(C)cc1NC(=O)CSC | 0.4
CCCS(=O)(=O)c1c(S(=O)(=O)CCC)c2c(C)cccn2c1C(=O)OC | i
N#C/C(=C1/CCCCCN1)c1nnc2n1CCCCC2 | i
COc1ccccc1OCc1ccc(C(=O)Nc2ccncc2)o1 | 0.5
O=C(COc1ccccc1)Nc1ccc(S(=O)(=O)NCc2ccco2)cc1 | i
Cc1ccc(C(=O)N/C(=C/c2cccs2)C(=O)N2CCCCCC2)cc1 | i
O=C(NCC(c1cccnc1)N1CCN(c2ccc(F)cc2)CC1)c1ccc(F)cc1 (stereo unspecified) | 0.0
COC(=O)c1cc(-c2c(C)oc3cc(O)ccc3c2=O)c(C)o1 | i
O=C(CN1CCOCC1)Nc1c2c(nc3c1CCC3)CCC2 | i
O=S(=O)(Cc1ccccc1)N1CCCC1 | 0.2
COC1CCCCC1Nc1cc(C)cc(C)c1 (stereo unspecified) | i
Cc1cc(C)c2cc(CN(CCO)C(=O)Nc3ccc(Cl)cc3)c(=O)[nH]c2c1 | 0.1
CCC(=O)N1CCN(c2ccc(NC(=O)c3cc4ccccc4o3)cc2Cl)CC1 | 0.5
COC(=O)c1ccccc1OCCOc1ccccc1C(=O)OC | i
CSc1ccc(Cc2ccc(Cl)cc2Cl)nn1 | i
CCOC(=O)CSc1nc2cc(C(=O)NCC3CCCO3)ccc2c(=O)n1Cc1ccco1 (stereo unspecified) | 1.0
CCOc1cc(C(=O)Nc2cccc3ncccc23)cc(OCC)c1OCC | i
Cc1ccc(C(=O)CC2SC(N)=NC2=O)cc1 (stereo unspecified) | 0.1
CC(=O)Nc1c(C(=O)N2CCOCC2)cnn1-c1ccc(C)c(C)c1 | 0.1
CC(=O)N(CC1CCCO1)C1(C(=O)NC2CCCC2)CCCCC1 (stereo unspecified) | 0.2
COc1ccc(/C=C(/C#N)C(=O)Nc2cc(C)ccc2C)cc1C(=O)O | i
Cc1ccc(NC(=O)N(C2CCCCC2)C(C)c2cccnc2)cc1C (stereo unspecified) | i
CCCc1ccc(OCC(=O)NNC(=S)NC(=O)c2ccco2)cc1 | i
O=C(Nc1nn(Cc2ccc(Cl)cc2)cc1Br)c1ccc(COc2ccccc2Cl)o1 | i
Cn1c(=O)[nH]c(=O)c2c1nc(N1CCCCCC1)n2CCSc1nc2ccccc2[nH]1 | 2.9
CCCCC(=O)N(c1ccc(C)c(C)c1)C1C=CS(=O)(=O)C1 (stereo unspecified) | 0.5
CN1CCC2(CC1)NC(=O)C1=C(CN(C)CC1)N2 | i
O=C(CC1CCCCC1)Nc1ncn[nH]1 | i
CCCCCOc1ccccc1C(=O)NCCCC(=O)O | i
O=c1nc2ccccc2c2n1CC(CN1CCN(c3cccc(Cl)c3)CC1)N2 (stereo unspecified) | i
CC(C)Nc1nc(NC(C)C)nc(Oc2ccc(/C=N/O)cc2)n1 | i
CC(=O)NC(CCS(C)(=O)=O)C(=O)Nc1cccc2ccccc12 (stereo unspecified) | 0.5
C=C(C)c1nc2cc(OC)c(OC)cc2c(=O)o1 | 0.5
Cc1cccc(C(=O)NC2CCN(CC(=O)N3CCOCC3)CC2)c1 | i
O=C(NCc1ccc2c(c1)OCO2)c1cccs1 | i
CCc1ccccc1N(CC)C(=O)c1cn(CC)c(=O)c2cc(OC)c(OC)cc12 | 0.1
Cc1ccc(S(=O)(=O)NCC(=O)N(CC(=O)NCc2ccccc2)CC2CCCO2)cc1 (stereo unspecified) | i
CCCCNC(=O)n1c(=O)oc2ccc(Cl)cc21 | i
CCOC(=O)c1sc(NC(=O)CSc2nnc(Cc3ccccc3)o2)c(C(=O)OCC)c1C | 2.2
Cn1c(=O)c2c(ncn2CC(O)CNc2ccc(Br)cc2)n(C)c1=O (stereo unspecified) | 0.4
CCn1cc(C(=O)N2CCN(C(=O)c3ccco3)CC2)c2cc(OC)c(OC)cc2c1=O | 0.9
O=c1/c(=C/c2ccco2)sc2nc(-c3ccccc3Br)nn12 | i
C=CCc1ccccc1OCC(O)CN(C(C)C)C(C)C (stereo unspecified) | i
CC1(C)Cc2c(C#N)c(NCCN3CCOCC3)nc(-c3ccco3)c2CO1 | i
CS(=O)(=O)N1CCN(CC2CC3C=CC2C3)CC1 (stereo unspecified) | 0.9
Cc1ccc(Nc2nc(N)nc(CN3CCN(c4ccccc4F)CC3)n2)cc1 | i

Following part
SMILES | H5N1 antiviral
Cc1cc(C)n2cc(CSC3=NCCS3)nc2n1 | 0.2
CCC(=O)N1CCN(C(=O)CC)C1c1ccccc1 | i
O=C(Nc1ccccc1N1CCN(c2ccccc2)CC1)c1cccc(F)c1 | 0.7
CC(C)C12CN3CC(C(C)C)(CN(C1)C3c1ccc3c(c1)OCO3)C2=O (stereo unspecified) | 0.2
Cc1ccc(C)c(Nc2c([N+](=O)[O-])cc(C(=O)N3CC(=O)Nc4ccccc43)cc2[N+](=O)[O-])c1 | 0.6
Cc1ccc(/C=C/C(=O)c2c(C)nc3ccccn23)cc1 | 19
CCC(C)[C@H](NC(=O)Nc1cccc(OC)c1)C(=O)OC (stereo partly specified) | i
CC1CCOC2(O1)C(=O)N(CN1CCN(c3cccc(Cl)c3)CC1)c1ccccc12 (stereo unspecified) | i
S=c1nc(-c2ccccc2)n(CCN2CCOCC2)c2c1CCCC2 | 0.5
CN1CCN(C(=O)c2ccccc2NC(=O)c2cccs2)CC1 | 0.5
CC(C)CNS(=O)(=O)c1ccc(CCC(=O)O)cc1 | 1.1
Cc1ccc(-n2c(CSc3nc(C)cc(C)n3)nnc2SCC(=O)NCc2ccco2)cc1 | i
O=C(c1ncc[nH]1)c1ccco1 | 1.1
COc1cccc(N2CCN(c3ccc(S(=O)(=O)N4CCCC4)cc3)CC2)c1 | 0.7
Cc1cc2nc(C)n(CCCNC(=O)Nc3ccc(F)cc3)c2cc1C | i
CCOCCn1c(N2CCN(c3ccccc3)CC2)nc2c1c(=O)n(C)c(=O)n2C | 2.7
CCOC(=O)c1cc(C)sc1NC(=O)CCC(=O)O | 0.1
CC(C)COC(=O)Nc1nnc(SCc2ccccc2F)s1 | 0.5
CCCCn1c(=O)[nH]c2ccccc21 | i
Fc1cccc(Cl)c1CNC(c1ccccc1)c1ccccc1 | 0.1
COc1ccc(C2C(C(=O)Nc3ccccc3)=C(C)Nc3nc(CCCO)nn32)cc1 (stereo unspecified) | i
COC(=O)C1=C(C)NC(=O)/C1=C\c1ccc2c(c1)OCO2 | i
COCCNC(=O)c1ccc2snnc2c1 | 1.3
O=C(CCCc1cccs1)Nc1nc2c(s1)CCCC2 | i
CC1CCCCC1NC(=O)C1CCCN1S(=O)(=O)c1cccc2nsnc12 (stereo unspecified) | 0.5
COc1ccc2c(c1OC)C(=O)OC2c1c(O)n(C2CCCCC2)c(=O)[nH]c1=O (stereo unspecified) | 1.2
CCOc1ccc(CCNC(=O)C2CCCN(S(=O)(=O)c3c(C)n[nH]c3C)C2)cc1OCC (stereo unspecified) | i
CC(C)(C)c1ccc(C(=O)N/N=C/c2cccc(Cl)c2)cc1 | i
N/C(=N\c1nc2ccccc2o1)NC(=O)c1ccc(F)cc1 | i
Cc1nc(SCC(=O)Nc2ccccc2C(F)(F)F)c(C#N)c(C)c1CC(=O)c1ccc(Br)cc1 | 4.6
NC(=O)c1cc(-c2ccccc2)nc(N2CCCCCC2)n1 | 0.2
c1ccc(OCCCn2nnc(-c3ccc(N4CCOCC4)cc3)n2)cc1 | 0.4
O=S(=O)(c1ccc(Nc2ccc3c(c2)OCO3)nc1)N1CCOCC1 | i
CCSc1nc2ccccc2n1CC(=O)OC | 0.1
COC(=O)CN1C(=O)C2(C(C#N)=C(N)Oc3n[nH]c(-c4cccs4)c32)c2ccccc21 (stereo unspecified) | 0.5
Cc1nnc(Nc2ccc(Cl)cc2)n(N)c1=O | i
O=S(=O)(NC1CCCCC1)c1cccc(-c2nnc(-c3ccccc3)o2)c1 | i
CCOc1ccc(NC(=O)Nc2nnc(CC)s2)cc1 | 0.3
COc1cc(C(=O)NCCOc2cccc(C)c2)c(Br)c(OC)c1OC | i
Cc1cc(N2CCN(Cc3ccccc3)CC2)n2nc(C)c(-c3ccccc3)c2n1 | 0.3
NC(CC(=O)OC1CCCCC1)C(=O)OC1CCCCC1 (stereo unspecified) | i
Fc1ccc2c(c1)nnn2C1CCN(Cc2nnnn2CCc2ccccc2)CC1 | i
O=C(c1ccc(CS(=O)(=O)c2ccc(Br)cc2)o1)N1CCN(c2ccccn2)CC1 | 0.1
O=S(=O)(NCC1CCCO1)c1ccc(S(=O)(=O)N2CCCC2)cc1 (stereo unspecified) | i
O=S(=O)(Nc1ccc(S(=O)(=O)N2CCCCC2)cc1)c1ccc(Br)s1 | 1.2
Cc1ccc(S(=O)(=O)NCc2ccc(C(=O)N3CCN(Cc4ccccc4)CC3)cc2)cc1 | i
CC1CCCN(C(=O)c2ccc(CNc3c(N4CCCCC4)c(=O)c3=O)cc2)C1 (stereo unspecified) | 3.9
COc1cc(Nc2nc3ccccc3n3nnnc23)cc(OC)c1OC | i
O=C(Nc1ccc2oc(-c3cccc(F)c3)nc2c1)c1ccccc1F | i
O=C(Nc1nc2c(s1)CCCC2)C1COc2ccccc2O1 (stereo unspecified) | 1.1
O=C(O)C1CC=CCC1C(=O)Nc1cccc(C(=O)N2CCCCC2)c1 (stereo unspecified) | 0.5
CCOC(=O)c1ccc(Nc2nc(C)cc(C)c2C#N)cc1 | 0.4
CCCn1c(=O)c2ccccc2n2c(SCc3nnc(-c4ccccc4Br)o3)nnc12 | 2.5
CN(CCO)Cc1csc2ccc(Br)cc12 | i
CCCOc1ccc(/C(O)=C2\C(=O)C(=O)N(CCCOC)C23C(=O)N(C)c2ccccc23)cc1 (stereo unspecified) | 0.6
CCOC(=O)c1c(-c2cccs2)csc1NC(=O)CSc1ncn[nH]1 | 2.7
COc1ccc(C)cc1S(=O)(=O)N(CC(=O)N1CCCC1)c1ccccc1 | 0.2
O=C(NC1CSC/C1=N\O)c1ccccc1 (stereo unspecified) | i
CC(=O)c1c(O)cc(=O)n(-c2ccccc2)c1-c1cccc2ccccc12 | i
CC(=O)Nc1ccc(S(=O)(=O)NC2(C(F)(F)F)NC(=O)N(C3CCCCC3)C2=O)cc1 (stereo unspecified) | i

New compounds follow.
SMILES | H5N1 antiviral
Cc1cc(C(=O)OCC(=O)NCCc2ccccc2)c(C)o1 | i
O=C(c1cc(-c2ccc3c(c2)OCO3)on1)N1CCOCC1 | 0.8
Cc1c(Cl)cccc1-c1ccc(C(=O)N2CCN(c3ccc([N+](=O)[O-])cc3)CC2)o1 | 0.7
CC(=O)OC(C(=O)NC1CCCCC1)c1ccc(C)cc1 (stereo unspecified) | 0.7
COc1ccc(OCC(=O)Nc2cccc3cccnc23)cc1 | i
O=c1[nH]c(CN2CCN(c3ccccc3O)CC2)nc2ccccc12 | i
O=C(c1cc2ccccc2oc1=O)N(Cc1ccccc1)C1CCS(=O)(=O)C1 (stereo unspecified) | i
Cc1ccc(Nc2nc(Nc3ccc(C)cc3)nc(SC3=NCCS3)n2)cc1 | 4.2

This is a subset, so the mix of outcomes need not match the whole.
